FGF22 binding: FGF22 (human) thermal shift binding; Q9HCT0; recombinant FGF22 thermal shift, SYPRO orange fluorescence; percent of sucrose octasulfate shift, DMSO zero; calls only at 9.99 µM; hit rate 1.5% among 340,000;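 active = melting point raised past a set limit in the mean and every replicate; three in four hits are not shown here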
Target sequence (Q9HCT0 whole entry, looked up): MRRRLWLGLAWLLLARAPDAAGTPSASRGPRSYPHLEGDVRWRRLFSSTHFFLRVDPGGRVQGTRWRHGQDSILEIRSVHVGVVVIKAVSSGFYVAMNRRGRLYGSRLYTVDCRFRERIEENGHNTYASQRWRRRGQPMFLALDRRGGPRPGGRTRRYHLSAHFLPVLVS
Ecoli rRNA inh: inhibitors of bacterial rRNA selective over humanized ribosomes. GFP signal change (wild-type ribosome), % (no concentration beside the values). E. coli WT GFP vs humanized-ribosome RFP mutants, fluorescence, 24 h; active compounds read low; DMSO median 0, no signal -100. AID 720706. hit rate 1.6% among 350,000;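 active = significant combined selectivity score with lowered wild-type GFP, culture density cut under 30%, mutant RFP and density less affected; inactive = any of these conditions unmet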; note: one replicate is shown; some compounds called inactive have numbers as strong as hits
Ecoli rRNA inh OD600: further read-out of Ecoli rRNA inh, marked with its call; OD600 change, %; measured here: OD600 growth;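 optical density of the mix in the first replicate; 0 = DMSO median and -100 = no signal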
Ecoli rRNA inh RFP: also measured in Ecoli rRNA inh; calls as there; RFP signal change, %; measured here: RFP humanized mutant strains;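 first replicate; 0 = DMSO median and -100 = no signal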
* = called active by the depositor; i = inactive; / = no result given. Only part of the results is shown (hit frequency here may not be typical).

SMILES	FGF22 binding	Ecoli rRNA inh	Ecoli rRNA inh OD600	Ecoli rRNA inh RFP
COCC(=O)Nc1ccc2c(c1)C(=O)N(C)C[C@@H](OC)[C@H](C)CN(Cc1ccccc1)[C@H](C)CO2	i	-2	-2	2.1
COCC(=O)N(C[C@@H]1[C@@H](c2ccccc2)[C@@H](CO)N1C(=O)NC(C)C)C(C)C	i	0	0	-1.9
CC(C)(C)[S@](=O)N1Cc2cc(C(=O)NCCc3ccncc3)nc(-c3cccc(-c4ccc(C#N)cc4)c3)c2[C@@H]1CCO	i	5	-2	-2.4
C[C@H](CO)N1C[C@H](C)[C@H](CN(C)C(=O)CC2CC2)Oc2ncc(C#CC3CC3)cc2C1=O	i	3	4	-2.7
COc1cccc(S(=O)(=O)Nc2ccc3c(c2)C(=O)N(C)[C@H]2CC[C@@H](CC(=O)NCC4CCCCC4)O[C@@H]2CO3)c1	i	1	-8	2.8
Cc1ccccc1-c1ccc2c(c1)O[C@H](CN(C)C(=O)c1ccccn1)[C@H](C)CN([C@@H](C)CO)S2(=O)=O	i	-5	-5	2.2
Cc1ccccc1-c1ccc([C@H]2[C@@H](CO)N3CCCCN(CC4CC4)C[C@@H]23)cc1	i	0	0	-2.2
COc1ccc2c3c([nH]c2c1)[C@@H](CO)N(C(=O)C1CC1)CC31CCN(C(=O)c2ccncc2)CC1	i	5	7	-3.1
Cc1ccc(C(Nc2ccccc2)c2ccc3ccc(C)nc3c2O)c(C)c1 (stereo not drawn)	i	-3	5	-4.6
CN1C[C@@H]2[C@H](c3ccccc31)[C@H](CO)N2C(=O)c1cccnc1	i	1	12	-2.5
Cc1ccc(S(=O)(=O)N[C@@H]2CC[C@@H](CC(=O)NCCCN(C)C)O[C@H]2CO)cc1	i	1	5	-2.6
CO[C@H]1CN(C)C(=O)c2cc(NS(=O)(=O)c3ccc(Oc4ccccc4)cc3)ccc2OC[C@H](C)NC[C@H]1C	i	1	-3	4.3
CN(C)CC(=O)Nc1ccc2c(c1)[C@@H]1C[C@@H](CC(=O)N3CCN(C)CC3)O[C@@H](CO)[C@@H]1O2	i	1	9	-2.7
CCCNC(=O)C[C@@H]1C[C@H]2c3cc(NS(=O)(=O)c4ccccc4)ccc3O[C@H]2[C@H](CO)O1	i	-2	-3	0.4
CC(=O)N1CCCCN2[C@H](CO)[C@H](c3ccc(Br)cc3)[C@@H]2C1	i	2	8	1.7
O=C(C[C@H]1CC[C@@H]2[C@H](COC[C@@H](O)CN2Cc2ccc(Oc3ccccc3)cc2)O1)Nc1nccs1	i	-45	-70	-6.2
COc1ccc2c3c([nH]c2c1)[C@H](CO)N(C)CC31CCN(C(=O)CN(C)C)CC1	i	-1	13	-1.4
C[C@@H]1CCCCO[C@@H](CN(C)S(=O)(=O)c2ccccc2)[C@H](C)CN([C@@H](C)CO)C(=O)c2cc(N(C)C)ccc2O1	i	-6	1	-1.4
COCC#Cc1ccc([C@@H]2[C@@H](CO)N3CCCCN(S(=O)(=O)c4ccc(OC)cc4)C[C@H]23)cc1	i	-5	-14	0.3
CO[C@H]1CN(C)C(=O)c2ccc(NS(C)(=O)=O)cc2OC[C@@H](C)N(C(=O)CN(C)C)C[C@@H]1C	i	0	8	1.8
O=C(C[C@H]1C=C[C@@H](NC(=O)C2CCC2)[C@@H](CO)O1)NCC1CC1	i	1	-4	-0.9
COc1ccc2c3c(n(C)c2c1)[C@@H](CO)NCC31CN(Cc2cc(-c3ccccc3)on2)C1	i	0	5	0.7
COC(=O)c1ccccc1S(=O)(=O)NC(=O)[C@H]1O[C@@H](n2ccc(=O)[nH]c2=O)[C@H](O)[C@@H]1O	i	14	2	3.6
COc1ccc(CN(C)C[C@@H]2Oc3ccc(NC(=O)Nc4c(C)noc4C)cc3C(=O)N([C@@H](C)CO)C[C@@H]2C)cc1	i	2	0	-2.0
COc1ccc(NC(=O)Nc2ccc3c(c2)C(=O)N([C@@H](C)CO)C[C@H](C)[C@H](CN(C)CC2CCCCC2)OCCCC[C@@H](C)O3)cc1	i	0	-21	18

Full records, quoted from the list. Screens in order: FGF22 binding	Ecoli rRNA inh	Ecoli rRNA inh OD600	Ecoli rRNA inh RFP
`COc1ccc2c3c(n(C)c2c1)[C@@H](CO)NCC31CN(Cc2cc(-c3ccccc3)on2)C1` is entered as i	0	5	0.7
`C[C@H](CO)N1C[C@H](C)[C@H](CN(C)C(=O)CC2CC2)Oc2ncc(C#CC3CC3)cc2C1=O` is entered as i	3	4	-2.7
`CC(C)(C)[S@](=O)N1Cc2cc(C(=O)NCCc3ccncc3)nc(-c3cccc(-c4ccc(C#N)cc4)c3)c2[C@@H]1CCO` is entered as i	5	-2	-2.4
`Cc1ccccc1-c1ccc2c(c1)O[C@H](CN(C)C(=O)c1ccccn1)[C@H](C)CN([C@@H](C)CO)S2(=O)=O` is entered as i	-5	-5	2.2

Carrying on:
SMILES	FGF22 binding	Ecoli rRNA inh	Ecoli rRNA inh OD600	Ecoli rRNA inh RFP
O=S(=O)(c1cccs1)N1CCCc2nc(-c3ccc(F)cc3)ccc21	/	-8	-18	2.6
CC(C)NC(=O)N[C@H]1CC[C@H](CCNC(=O)C2CC2)O[C@H]1CO	i	1	4	0.5
Cc1ccc(S(=O)(=O)N(C)C[C@@H]2OCCCC[C@H](C)Oc3ccc(NS(=O)(=O)c4ccc(Cl)cc4)cc3C(=O)N([C@@H](C)CO)C[C@@H]2C)cc1	i	0	7	4.2
C[C@@H]1CN([C@H](C)CO)C(=O)c2cccc(NC(=O)Nc3ccc4c(c3)OCO4)c2O[C@H]1CN(C)C(=O)Nc1ccc(C(F)(F)F)cc1	i	-9	-10	-0.8
C[C@H](CO)N1C[C@H](C)[C@@H](CN(C)C(=O)[C@H](C)c2ccccc2)OCc2ccccc2-c2ccccc2C1=O	i	-5	1	-2.3
CC(C)NC(=O)Nc1ccc2c(c1)C(=O)N([C@H](C)CO)C[C@H](C)[C@H](CN(C)C(=O)CCCN(C)C)OCCCC[C@@H](C)O2	i	3	-2	-2.4
Cc1noc(C)c1S(=O)(=O)N(C)C[C@H]1OCCCC[C@H](C)Oc2ccc(NS(=O)(=O)c3ccc(F)cc3)cc2C(=O)N([C@H](C)CO)C[C@H]1C	i	-1	0	-1.9
C[C@H](CO)N1C[C@H](C)[C@H](CN(C)CC2CCOCC2)Oc2ncc(C#Cc3ccccc3)cc2C1=O	i	4	8	-1.6
COc1cccc(S(=O)(=O)Nc2ccc3c(c2)C(=O)N(C)C[C@@H](OC)[C@H](C)CN(Cc2ccccc2F)[C@H](C)CO3)c1	i	-2	2	-0.1
C[C@H]1CN([C@@H](C)CO)C(=O)c2cccc(NC(=O)Nc3ccc(F)cc3)c2O[C@@H]1CN(C)CC1CCCCC1	i	-10	-14	-1.7
O=C(C[C@@H]1C=C[C@H](NC(=O)C2CCC2)[C@@H](CO)O1)NCc1ccncc1	i	1	4	0.8
C[C@@H]1CCCCO[C@H](CN(C)C(=O)NC2CCCCC2)[C@H](C)CN([C@H](C)CO)C(=O)c2cc(NS(=O)(=O)c3cccs3)ccc2O1	i	-5	-15	4.8
C[C@H]1CCCCO[C@@H](CN(C)C(=O)NC2CCCCC2)[C@@H](C)CN([C@@H](C)CO)C(=O)c2cc(NC(=O)CCC(F)(F)F)ccc2O1	i	3	9	0.1
O=C(C[C@H]1C[C@H]2c3cc(NC(=O)Nc4ccc(C(F)(F)F)cc4)ccc3O[C@H]2[C@@H](CO)O1)NCc1ccccn1	i	-3	80	34
CNC[C@H]1OCCCC[C@@H](C)Oc2ccc(NS(=O)(=O)c3cn(C)cn3)cc2C(=O)N([C@H](C)CO)C[C@@H]1C	i	2	0	-1.4
C[C@H](O)C#Cc1cnc2c(c1)C(=O)N([C@@H](C)CO)C[C@@H](C)[C@@H](CN(C)Cc1cccc(C(=O)O)c1)O2	i	2	2	-2.1
C[C@@H]1CN([C@@H](C)CO)C(=O)Cc2cc(NC(=O)CCC(F)(F)F)ccc2O[C@@H]1CN(C)Cc1ccc(-c2ccccc2)cc1	i	0	0	2.9
C[C@@H]1CN([C@H](C)CO)C(=O)Cc2cc(NS(=O)(=O)c3ccc(F)cc3)ccc2O[C@@H]1CN(C)S(C)(=O)=O	i	4	10	0.2
COc1ccc2c3c(n(C)c2c1)[C@H](CO)N(C(=O)C1CC1)CC31CCN(CC2CCCC2)CC1	i	-1	-11	-0.4
CO[C@@H]1CN(C)C(=O)c2cc(NC(=O)c3cc(C)on3)ccc2OC[C@@H](C)N(C(=O)C2CCC2)C[C@H]1C	i	1	-2	-0.8
O=C(C[C@H]1CC[C@H]2[C@@H](COC[C@@H](O)CN2Cc2cccc(F)c2)O1)NCC1CCCCC1	i	-4	-5	2.9
CC(C)C#Cc1ccc([C@@H]2[C@@H](CO)N3CCCCN(CC4CC4)C[C@H]23)cc1	i	3	-5	4.1
O=C(C[C@@H]1CC[C@H]2[C@@H](COC[C@H](O)CN2Cc2ccc(Cl)cc2)O1)NCc1cccc(F)c1	i	-5	-6	2.7
CC(C)NC(=O)N1[C@H](CO)[C@H](c2ccc(C#CC3CCCCC3)cc2)[C@@H]1C#N	i	2	-1	0.9
O=C(C[C@H]1C[C@H]2c3cc(NS(=O)(=O)c4ccccc4)ccc3O[C@H]2[C@@H](CO)O1)N1CCCCC1	i	2	-1	-2.3

Retrieved by compound from above, two records:
SMILES	FGF22 binding	Ecoli rRNA inh	Ecoli rRNA inh OD600	Ecoli rRNA inh RFP
O=S(=O)(c1cccs1)N1CCCc2nc(-c3ccc(F)cc3)ccc21	/	-8	-18	2.6
C[C@@H]1CN([C@H](C)CO)C(=O)c2cccc(NC(=O)Nc3ccc4c(c3)OCO4)c2O[C@H]1CN(C)C(=O)Nc1ccc(C(F)(F)F)cc1	i	-9	-10	-0.8

The listing continues:
SMILES	FGF22 binding	Ecoli rRNA inh	Ecoli rRNA inh OD600	Ecoli rRNA inh RFP
Cc1ccc(S(=O)(=O)N(C)C[C@H]2Oc3ccc(NC(=O)CCN4CCOCC4)cc3CC(=O)N([C@@H](C)CO)C[C@H]2C)cc1	i	1	6	-1.4
CC=Cc1ccc2n(c1=O)C[C@@H]1[C@@H](CO)[C@H](C(=O)N3CCCCC3)N(Cc3ccccc3OC)[C@H]21 (mixture of isomers)	i	-4	-16	-0.9
C[C@@H]1CN([C@@H](C)CO)C(=O)c2cc(C#CC3(O)CCCC3)cnc2O[C@H]1CN(C)S(=O)(=O)c1cccc(F)c1	i	-4	2	-0.5
C[C@H](CO)N1C[C@H](C)[C@H](CN(C)S(=O)(=O)c2cccs2)Oc2ncc(-c3ccc(F)cc3)cc2C1=O	i	3	2	1.4
C[C@@H]1CN([C@@H](C)CO)C(=O)c2cc(NS(=O)(=O)c3cn(C)cn3)ccc2O[C@@H](C)CCCCO[C@@H]1CN(C)C(=O)C1CCCCC1	i	0	2	-1.1
O=C(C[C@@H]1CC[C@H]2[C@@H](COC[C@H](O)CN2S(=O)(=O)c2cccc(F)c2)O1)NCc1ccncn1	i	-2	-8	-2.2
CCC(=O)N1C[C@@H](C)[C@H](OC)CN(C)C(=O)c2cc(NS(C)(=O)=O)ccc2OC[C@H]1C	i	3	3	0.2
CC(C)NC(=O)NCC[C@@H]1CC[C@@H](NS(=O)(=O)c2ccc(-c3ccccc3)cc2)[C@@H](CO)O1	i	-5	-8	0.6
COc1ccccc1-c1cnc2c(c1)C(=O)N([C@H](C)CO)C[C@@H](C)[C@@H](CN(C)C(=O)CN(C)C)O2	i	5	10	-0.3
Cc1ccc2nc(-c3ccc(Cl)cc3)c(Cc3ccsc3)n2c1	i	-12	-5	1.1
C[C@@H]1CN([C@@H](C)CO)C(=O)c2cc(-c3cncnc3)cnc2O[C@H]1CN(C)Cc1cncnc1	i	4	13	-0.8
CO[C@@H]1CN(C)C(=O)c2ccc(NC(=O)c3ccccc3F)cc2OC[C@H](C)NC[C@@H]1C	i	3	4	-0.1
C[C@@H]1CN([C@@H](C)CO)C(=O)c2cc(NC(=O)c3ccncc3)ccc2O[C@H]1CN(C)C(=O)Nc1ccc(F)cc1	i	-1	-6	-1.6
C[C@@H]1CCCCO[C@H](CN(C)S(=O)(=O)c2ccccc2)[C@H](C)CN([C@H](C)CO)C(=O)c2cc(NS(=O)(=O)c3cn(C)cn3)ccc2O1	i	0	-2	0.7
C[C@H](CO)N1C[C@H](C)[C@@H](CN(C)Cc2ccc3c(c2)OCO3)Oc2ccc(NS(C)(=O)=O)cc2CC1=O	i	1	-7	1.7
C[C@@H]1CN([C@@H](C)CO)C(=O)c2cccc(NC(=O)C3CCOCC3)c2O[C@@H]1CN(C)S(=O)(=O)c1ccc(F)cc1	i	-1	6	-2.4
COCC(=O)N1CC2(C1)CN(S(C)(=O)=O)[C@H](CO)c1c2c2ccc(OC)cc2n1C	i	2	-1	-2.7
CO[C@H]1CN(C)C(=O)c2ccc(NC(=O)c3cnccn3)cc2OC[C@@H](C)N(CCc2ccccc2)C[C@@H]1C	i	-3	-9	2.6
C[C@H]1CN([C@@H](C)CO)C(=O)Cc2cc(NC(=O)c3ccncc3)ccc2O[C@@H]1CN(C)Cc1ccc(Cl)c(Cl)c1	i	-25	-45	10
O=C(C[C@H]1CC[C@@H]2[C@H](COC[C@@H](O)CN2C(=O)Nc2ccc(Cl)c(Cl)c2)O1)NCc1ccc(F)cc1	i	-59	-77	-16
C[C@@H]1CN([C@@H](C)CO)C(=O)c2cc(NC(=O)CCCN(C)C)ccc2O[C@@H](C)CCCCO[C@H]1CN(C)C(=O)Cc1ccccc1	i	4	5	-0.2
Cc1cc(C(=O)Nc2cccc3c2O[C@H](CN(C)C)[C@H](C)CN([C@H](C)CO)C3=O)n(C)n1	i	3	14	0.0
